From PubChem
Marburg entry inh: blocks Marburg virus binding to or entry into cells; Potency, µM (top dose mostly 37.8 µM), for inactives: top-dose activity change, negative = inhibition, usual class: inhibitors; 1.8% of 300,000 active; Marburg virus pseudotyped entry inhibition, cell reporter; control for the full effect not named in the record; about a third of the inactives were read at about 46 µM; active = well fitted inhibition curve with a large enough effect; inconclusive = small, poorly fitted or top-dose-only effect, or effect the other way; inactive = flat fitted curve, though single readings scatter; tested in HEK293 cells; about a fifth of its hits are not listed in these tables; note: % is set by controls: 0 for no effect and ±100 for the full control effect; luciferase read-out
Cruzain Triton: inhibitors of Trypanosoma cruzi cruzain with detergent | purified cruzain, Z-FR-AMC fluorescence, 0.01% Triton | Potency, µM, inactives show max response, negative = inhibition, actives largely listed as inhibitors | 0.43% of 200,000 active; active = well fitted curve in the direction sought with a large enough effect; inconclusive = small, poorly fitted or top-dose-only effect, or another doubt; inactive = no such curve, though single readings can be large; an effect the other way counts as inactive or inconclusive;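 note: plate controls were neutral wells for no effect and buffer without enzyme for full effect; nearly all actives have a fitted effect of over 40% in size; top concentration of the series not given in the record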
Target sequence (P25779 123-467 limits assumed): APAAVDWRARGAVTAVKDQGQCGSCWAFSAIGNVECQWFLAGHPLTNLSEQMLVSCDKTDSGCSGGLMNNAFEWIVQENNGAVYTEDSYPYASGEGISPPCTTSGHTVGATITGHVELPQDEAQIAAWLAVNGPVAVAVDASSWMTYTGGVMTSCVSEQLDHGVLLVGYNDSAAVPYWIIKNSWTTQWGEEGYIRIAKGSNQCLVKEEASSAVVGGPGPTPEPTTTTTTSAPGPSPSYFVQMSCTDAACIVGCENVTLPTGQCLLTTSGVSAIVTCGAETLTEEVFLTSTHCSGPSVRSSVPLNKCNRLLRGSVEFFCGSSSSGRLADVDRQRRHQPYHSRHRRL
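Sodium acetate buffer (100 mM, pH 5.5) containing 5 mM DTT and 0.01% Triton X-100 hosted 1.5 nM cruzain and test compound for 15 min at room temperature. Cleavage of 2 uM Z-FR-AMC was then tracked by fluorescence.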
Lassa entry inh: blocks Lassa virus binding to or entry into cells; Lassa virus pseudotype entry inhibition, cell reporter; control for the full effect not named in the record; Potency, µM (titrated, usually from 37.9 µM), for the others: at the highest dose activity change, negative = inhibition, hits mostly inhibitors; 1.2% of 300,000 active; AID 540256; active means well fitted inhibition curve with a large enough effect; inconclusive means small, poorly fitted or top-dose-only effect, or effect the other way; inactive means flat fitted curve, though single readings scatter; tested in HEK293 cells; note: % is set by controls: 0 for no effect and ±100 for the full control effect; nearly all actives have a fitted effect of over 50% in size; luciferase read-out
SARS PLpro yeast: blocks SARS-CoV papain-like protease in a yeast assay; S. cerevisiae expressing SARS-CoV PLpro, growth rescue; control for the full effect not named in the record; 0.19% of 330,000 active; Potency, µM (doses to about 32.9 µM), without a hit: top-dose activity, positive = growth rescue; note: 0% is about no effect; nearly all actives have a fitted effect of over 55% in size; growth read by luminescence after 48 h
NS1 function inh: inhibitors of influenza NS1 protein function; S. cerevisiae slowed by influenza A NS1, growth recovery by OD600; Potency, µM (series often up to 46.1 µM), for inactives: at the highest dose activity, positive = more growth; 0.4% of 270,000 active; note: actives are rising curves; nearly all actives have a fitted effect of over 50% in size
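OD600 was taken as the measure of yeast growth restored by compound in an NS1-expressing S. cerevisiae strain. Cells had been washed out of glucose medium and diluted 1:100 into galactose -URA medium, pH 6.0.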
Cruzain noTriton: blocks cruzain activity in detergent-free assay. Potency, µM, for inactives: max response, negative = inhibition, usual class: inhibitors. AID 1476. 2.3% of 200,000 active. purified cruzain, Z-FR-AMC fluorescence, no detergent; active = well fitted curve in the direction sought with a large enough effect; inconclusive = small, poorly fitted or top-dose-only effect, or another doubt; inactive = no such curve, though single readings can be large; an effect the other way counts as inactive or inconclusive;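 note: plate controls were enzyme without inhibitor for no effect and buffer without enzyme for full effect; nearly all actives have a fitted effect of over 40% in size; top concentration of the series not given in the record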
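Detergent-free condition (0.00005% Triton X-100) in acetate buffer pH 5.5 with DTT. 1.5 nM enzyme and compound were pre-mixed 15 min, then 2 uM Z-FR-AMC substrate added; reaction progress from fluorescence change between first and third reads (60 s).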
RE007 growth inh: less growth of the S. pombe RE007 Vpr strain | Potency, µM (top dose mostly 92.2 µM), inactives show top-dose activity change, negative = less growth | AID 651644 | 0.21% of 360,000 active | S. pombe RE007 Vpr strain, BacTiter-Glo ATP luminescence, 24 h; control for the full effect not named in the record; active = well fitted falling curve with a large enough effect; inconclusive = small, poorly fitted or top-dose-only effect; inactive = no such curve, though single readings can be large or run the other way;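 note: % is set by controls: 0 for no effect and ±100 for the full control effect; nearly all actives have a fitted effect of over 50% in size; the assay follows cell death caused by Vpr and the record does not say whether a fall means rescue or toxicity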
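Fission yeast strain RE007, carrying one chromosomally integrated HIV-1 vpr copy, was seeded at OD 0.01 in PMG+AL medium with 23 nL pinned compound. After 24 h at 30 °C and 99% humidity, viability was read by BacTiter-Glo luminescence.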
StopGo reporter: lowers the luciferase signal of an FMDV 2A StopGo reporter; human cells with a luciferase reporter of 2A StopGo recoding; control for the full effect not named in the record; Potency, µM (titrated, usually from 57.9 µM), without a hit: top-dose signal change, negative = less light; 1.2% of 410,000 active; active = well fitted falling curve with a large enough effect; inconclusive = small, poorly fitted or top-dose-only effect; inactive = no such curve, though single readings can be large or run the other way; tested in HEK293T cells; note: % is set by controls: 0 for no effect and ±100 for the full control effect; nearly all actives have a fitted effect of over 45% in size; luciferase light after 4 h
Numbers without * were called inactive; ? = inconclusive; nt = not tested or not shown; [ ] = remark or other dose. Unless noted, calls come from the whole dose curve; as a rule, active means well fitted rising curve with a large enough effect; inconclusive means small, poorly fitted or top-dose-only effect; inactive means no such curve, though single readings can be large or run the other way. Potency is the fitted concentration of half-maximal effect.

Molecule,Marburg entry inh,Cruzain Triton,Lassa entry inh,SARS PLpro yeast,NS1 function inh,Cruzain noTriton,RE007 growth inh,StopGo reporter
N/C(=N\OC(=O)c1ccc2ccccc2c1)c1ccncc1,nt,nt,nt,-2%,-36%,nt,-13%,61%[activator]
COc1ccc(C(=O)COC(=O)C2CCCN2C(=O)C23CC4CC(CC(C4)C2)C3)cc1 (configuration not stated),1%,-5.9%,2%,9%,-13%,6%,-6%,-11%
CCc1nnc(NC(=O)c2ccc(-c3ccccc3F)o2)s1,15%[46.1 µM],nt,?,1%,nt,nt,-10%,38%[activator]
O=C1c2cc(S(=O)(=O)N(CCO)CCO)ccc2-c2ccc(S(=O)(=O)N(CCO)CCO)cc21,-10%,nt,?,nt,nt,nt,-12%,-1%
Cc1cc(C(=O)NC(C)C2CC2)c(Cl)cc1Cl (configuration not stated),nt,nt,nt,6%,-1%,nt,4%,2%
COc1cc(/C=N/N(C)C)ccc1OC(=O)c1ccco1,11%[46.1 µM],nt,9%,-7%,nt,nt,-13%,13%
Cc1ccccc1-c1nc(Cc2ccccc2)no1,?,6.6%,10%,1%,-7%,4%,5%,28%
CC(=O)Nc1ccc(OCCOc2ccc(/C=C3\C(=N)N4N=C(C(C)C)SC4=NC3=O)cc2)cc1,nt,nt,nt,11%,1%,nt,6%,-22%
COc1ccc(OCC(=O)Nc2nccs2)cc1,?,nt,?,-2%,-7%,nt,-6%,-64%
C/C(=N\N1CCN(c2ccccc2)CC1)c1ccccc1O,nt,nt,nt,0%,-8%,nt,-6%,2%
COc1ccc(C)cc1NC(=O)C(=O)NCC1(c2ccccc2)CCCC1,?,2.9%,-30%[46.1 µM],nt,nt,-13%,nt,?
CN(C)S(=O)(=O)c1ccc(Cl)c(NC(=O)CN2CCC(Cc3ccccc3)CC2)c1,?,nt,?,0%,nt,nt,-4%,?
N#Cc1ccc(C(=O)NC2=NCCS2)cc1,nt,nt,nt,-2%,0%,nt,-2%,69%[activator]
NS(=O)(=O)c1ccc(Nc2ncccc2[N+](=O)[O-])cc1,?,-7.2%,2%,-14%,6%,2%,1%,30%
O=C(NN=c1c(=O)c2ccccc2c1=O)c1ccccc1,10%,0.2%,-7%,-30%,-185%,-5%,?,nt
CC(OC(=O)CCN=C1NS(=O)(=O)c2ccccc21)C(=O)c1ccccc1 (configuration not stated),-5%,nt,6%,-4%,nt,nt,-6%,8%
CCC(=O)Nc1cccc(NC(=O)c2ccc(C)c([N+](=O)[O-])c2)c1,4%,-7.7%,1%,8%,14%,-1%,10%,20%
CCNC(=S)N(Cc1cc2cc(C)c(C)cc2[nH]c1=O)C1CCCC1,?,nt,-12%,0%,-2%,nt,13%,-8%
CCC(=O)N(CCc1ccccc1)Cc1cc2cc3c(cc2[nH]c1=O)OCO3,5%,1.6%,3%,8%,5%,2%,-15%,-21%
Cc1ccc(N(CC(=O)NC2CCCCC2)C(=O)Cn2nnc(-c3ccc(C)o3)n2)cc1,-6%[46.1 µM],nt,?,-1%,4%,nt,0%,-4%
COc1ccc(-c2oc3ccccc3c(=O)c2OC(C)=O)cc1,?,nt,?,-2%,nt,nt,-9%,25%
CCCN1CCN(CC(=O)Nc2nc3ccccc3s2)CC1,-4%[46.1 µM],nt,24%[46.1 µM],2%,4%,nt,2%,10%
N#CCSc1nc2ccccc2c(=O)n1CC1CCCC1,nt,nt,nt,-1%,1%,nt,8%,-13%
COc1ccc(-c2nc(CN3CCC(C(=O)NCc4ccc(F)cc4)CC3)c(C)o2)cc1OC,12%[46.1 µM],-0.6%,-11%[46.1 µM],nt,nt,-12%,nt,9%
Cc1ccc2cc(CCNS(=O)(=O)c3ccc(Cl)cc3)c(=O)[nH]c2c1C,?,nt,9%,1%,2%,nt,12%,-26%
CC1(C)CC(C(CCN(Cc2ccccc2)C(=O)c2ccco2)c2ccc(F)cc2)CCO1 (configuration not stated),?,-9.8%,?,-33%,0%,?,nt,14µM*
Clc1ccccc1Nc1nc(-c2cccnc2)cs1,?,nt,?,-6%,-38%,nt,-6%,6%
CCOC(=O)c1ccc(-n2c(=S)sc3c(=O)[nH]c(C)nc32)cc1,27%,-4.2%,-3%,1%,-77%,-12%,-8%,-12%
O=C(COC(=O)c1n[nH]c2ccccc12)NC(=O)NC1CCCCC1,22%[46.1 µM],-6.7%,-17%,-1%,4%,-10%,28%,-17%
Clc1cc(Cl)cc(Nc2ncn[nH]2)c1,4%,-1.3%,2%,-11%,-23%,-13%,-5%,-17%
O=C(CCNC(=O)c1ccco1)Nc1ccc(Cl)cc1,?,nt,?,-1%,1%,nt,-17%,11%
O=C1CC(N2CCC(c3nc4ccccc4o3)CC2)C(=O)N1c1ccc(Cl)c(C(F)(F)F)c1 (configuration not stated),8%,0.0%,-18%,?,-132%,?,28µM*,nt
O=c1c2ccccc2nc2n1C(CSc1ccc(F)cc1)CS2 (configuration not stated),?,nt,5%[46.1 µM],1%,0%,nt,6%,9%
CCOC(=O)N1CCN(S(=O)(=O)c2ccc(F)c(C(=O)Nc3cc(C)cc(C)c3)c2)CC1,-26%,-1.3%,-4%,5%,-34%,?,1%,-23%
O=C1CSC(=S)N1c1cccc(O)c1,?,nt,?,-11%,-78%,nt,?,?
Cc1oc(-c2cc(F)cc(F)c2)nc1CN1CCN(C(=O)c2ccco2)CC1,?,nt,4%,-1%,-9%,nt,1%,?
CC(C)NC(=O)c1ccccc1NC(=O)Cc1ccc(Br)cc1,19%,nt,2%,-1%,nt,nt,-4%,-11%
Cc1ccc[n+](CC(=O)Nc2c(Cl)cc(Cl)cc2Cl)c1,?,nt,13%,-1%,1%,nt,-16%,-14%
C=C(C)Cc1c(C)c(C#N)c2nc3ccccc3n2c1N1CCCCC1,-17%,-3.4%,4%,5%,-2%,2%,6%,-13%
COc1ccc(C2CC(=O)c3cnc(N)nc3C2)c(OC)c1 (configuration not stated),-20%,1.2%,-10%,5%,-13%,11%,-10%,-25%
O=C(NCc1ccco1)c1ccc(Cn2c(=O)c3sccc3n(Cc3cccc(F)c3)c2=O)cc1,-1%,5.4%,nt,0%,?,25µM*,13%,-15%
CC(=O)Nc1nonc1-c1nc2ccccc2n1Cc1ccccn1,10%,1.5%,8%,1%,-3%,-16%,8%,-9%
Cc1ccc(NC(=O)c2sc(Cl)nc2C)c(C)c1,1%,0.9%,2%,-3%,-7%,20%,39%,23%
Cn1c(=O)c(=O)n(C)c2cc(N3CCCC3)c(NC(=O)c3ccccc3Cl)cc21,3%[46.1 µM],-2.7%,10%[46.1 µM],nt,nt,-12%,nt,-19%
CCOC(=O)C1CCN(C(=O)CSc2nccc(C)n2)CC1,?,nt,21%[46.1 µM],-1%,0%,nt,7%,-4%

4 compounds out of the list, arranged by heavy-atom count, low to high.
Molecule,Marburg entry inh,Cruzain Triton,Lassa entry inh,SARS PLpro yeast,NS1 function inh,Cruzain noTriton,RE007 growth inh,StopGo reporter
O=C1CSC(=S)N1c1cccc(O)c1,?,nt,?,-11%,-78%,nt,?,?
COc1ccc(C2CC(=O)c3cnc(N)nc3C2)c(OC)c1 (configuration not stated),-20%,1.2%,-10%,5%,-13%,11%,-10%,-25%
C=C(C)Cc1c(C)c(C#N)c2nc3ccccc3n2c1N1CCCCC1,-17%,-3.4%,4%,5%,-2%,2%,6%,-13%
Cn1c(=O)c(=O)n(C)c2cc(N3CCCC3)c(NC(=O)c3ccccc3Cl)cc21,3%[46.1 µM],-2.7%,10%[46.1 µM],nt,nt,-12%,nt,-19%

Next section
Molecule,Marburg entry inh,Cruzain Triton,Lassa entry inh,SARS PLpro yeast,NS1 function inh,Cruzain noTriton,RE007 growth inh,StopGo reporter
COc1ccc(-c2cc(=O)oc3cc(OCC(=O)Nc4ccccn4)ccc23)cc1,nt,nt,nt,2%,12%,nt,16%,-5%
Cc1ccc2nc(SCC(=O)NCc3cccs3)[nH]c2c1,9%[46.1 µM],nt,?,3%,-3%,nt,6%,?
O=C(CCl)N1N=C(c2ccco2)CC1c1cccs1 (configuration not stated),?,-6.5%,-27%,16%,-20%,-13%,-13%,?
COC(=O)CSc1nnc(-c2cccnc2)n1-c1cc(OC)cc(OC)c1,4%,3.4%,-2%,4%,-4%,3%,0%,nt
O=C(CN1C(=O)NC2(CCCC2)C1=O)OCCOc1ccc(F)cc1,5%[46.1 µM],nt,2%,1%,nt,nt,-5%,-6%
CC(=O)NS(=O)(=O)c1ccc(NC(=O)c2cc(-c3ccc(C)cc3)nc3ccccc23)cc1,14%,-16%,20%,23%,8.9µM*,12%,11%,31%[activator]
O=C(CSc1nccn1-c1ccc(Cl)cc1)Nc1ccc2c(c1)OCO2,-23%,-5.9%,-13%,11%,-134%,-2%,-13%,?
CN1C(=O)/C(=C/c2ccc(OCc3ccc(F)cc3)cc2)NC1=S,-16%[46.1 µM],nt,-10%[46.1 µM],-2%,-8%,nt,-8%,-21%
O=C(NCCCO)c1nnc(Cc2c(F)cccc2Cl)o1,-5%,4.7%,5%,?,9%,-1%,16%,?
Cn1c(CNC(=O)c2ccc(Cl)cc2)nnc1SCC(=O)NC1=NCCS1,5%[46.1 µM],nt,-14%,-2%,7%,nt,-12%,9%
O/N=C1/C2C3C(Br)C4C5CC(C1C53)C24 (configuration not stated),?,2.5%,17%,-3%,8%,12%,-13%,-9%
Cc1nn(-c2ccccc2)c2c1N(CCCC(=O)NC(C)c1ccccc1)C(=O)CS2 (configuration not stated),nt,-4.0%,-25%[46.1 µM],nt,nt,?,nt,0%
CC(=O)c1cnc2n(c1=O)CCS2,10%[46.1 µM],nt,6%[46.1 µM],2%,nt,nt,70%,-7%
